Screening results deposited in PubChem BioAssay by several laboratories.
RGS16-Gao HTS: modulators of RGS16 binding to Galphao, primary screen, biochemical, human proteins, multiplexed bead flow cytometry; 220,000 compounds, 0.38% hits; Regulator of G-protein signaling 16 (Homo sapiens) + Guanine nucleotide-binding protein …; bead-based flow cytometry RGS16-Galphao binding, fluorescence; actives lie on both sides; AID 1441, 2008; binding response (% of control), % at 10 µM;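 active = below 25% or above 175%, edge rows of some plates excepted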;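 note: Galphao activated by GDP with aluminum fluoride before binding; 100% = wells without compound and 0% = beads without RGS; some results beyond the cut were filed as inactive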
Target sequence (O15492 whole entry, looked up): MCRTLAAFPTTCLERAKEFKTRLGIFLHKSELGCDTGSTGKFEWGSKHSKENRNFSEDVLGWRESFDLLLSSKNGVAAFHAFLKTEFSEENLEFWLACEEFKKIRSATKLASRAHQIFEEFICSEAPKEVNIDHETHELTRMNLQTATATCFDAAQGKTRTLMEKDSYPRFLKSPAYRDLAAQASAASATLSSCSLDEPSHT
Target sequence (P09471 whole entry, looked up): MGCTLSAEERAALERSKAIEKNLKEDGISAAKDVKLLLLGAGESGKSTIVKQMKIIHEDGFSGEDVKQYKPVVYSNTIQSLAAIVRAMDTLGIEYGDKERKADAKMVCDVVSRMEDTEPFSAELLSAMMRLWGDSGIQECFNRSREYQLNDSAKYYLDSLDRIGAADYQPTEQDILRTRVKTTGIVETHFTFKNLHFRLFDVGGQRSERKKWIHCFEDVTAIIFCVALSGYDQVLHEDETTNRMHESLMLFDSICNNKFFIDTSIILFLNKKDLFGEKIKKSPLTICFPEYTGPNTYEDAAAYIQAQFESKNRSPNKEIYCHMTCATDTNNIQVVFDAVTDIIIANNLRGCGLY
PKD1 inh: inhibitors of human PKD1 kinase, biochemical, fluorescence polarization | Serine/threonine-protein kinase D1 (Homo sapiens), Q15139 | PKD1 kinase fluorescence polarization assay | inhibition, %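 (about 10 µM by stock and volumes)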 | 200,000 compounds, 0.056% hits | AID 797, 2007;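 active = inhibition of 50% or more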;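 note: controls were vehicle for no effect and a reference inhibitor for full effect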
Insulin prom inh: inhibitors of insulin promoter-driven GFP, primary screen, imaging, TRM-6 cells (human fetal islet line), eGFP reporter, cell count; reporter expression induced with tamoxifen; inhibition, % at 2 µM; 130,000 compounds, 0.9% hits; AID 1273, 2008;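 active = inhibition above the mean plus 3 SD, with well images judged a real hit on visual review, cut at about 60% in these data, passing the limit was not always enough; inconclusive = inhibition over the cutoff but images rejected on review; inactive = inhibition not above the cutoff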
HSV replic up: enhancers of HSV replication in host cells, fold increase, host cell viability. HSV replication augmentation in cells. maximum fold increase. 220,000 compounds, 0.005% hits. AID 1956, 2009;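 active = peak rise of 1.5-fold or more in the series; inconclusive = self-fluorescent or not available for retest; tested in PC3 cells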;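 note: first round at 10 µM; read as green reporter fluorescence; hits show the peak of a series up to 25 µM; 1 = signal of infected wells without compound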
GALR2 agonist: GALR2 receptor agonists, primary screen, cell-based | Galanin receptor type 2 (Homo sapiens), O43603 | GALR2-expressing cells, agonist activation read-out | activation, %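 (tested at 5 µM)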 | 140,000 compounds, 0.48% hits | AID 803, 2007;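 active = above mean plus 3 SD of all compounds, about 5% in these data, not always enough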;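 note: 0% = vehicle buffer wells and 100% = reference agonist at full effect; tested in CHO reporter cells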
Target sequence (O43603 whole entry, looked up): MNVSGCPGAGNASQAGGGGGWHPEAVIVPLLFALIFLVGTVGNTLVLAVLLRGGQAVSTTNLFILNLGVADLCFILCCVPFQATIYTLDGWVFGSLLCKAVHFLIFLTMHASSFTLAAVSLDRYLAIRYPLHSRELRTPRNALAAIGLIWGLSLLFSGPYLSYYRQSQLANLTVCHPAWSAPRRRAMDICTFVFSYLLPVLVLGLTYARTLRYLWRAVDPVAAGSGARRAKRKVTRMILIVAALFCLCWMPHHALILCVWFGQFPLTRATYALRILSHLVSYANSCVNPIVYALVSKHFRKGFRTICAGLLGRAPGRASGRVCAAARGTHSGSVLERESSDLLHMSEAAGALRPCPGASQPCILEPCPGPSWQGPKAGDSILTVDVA
Insulin prom inh cell count: also measured in Insulin prom inh; calls as there; normalized cell count, %; measured here: cell count, toxicity; reference of the scale not given here;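 cells exposed to compound for 48 h; stained nuclei by imaging scaled within each plate; lower means fewer cells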
HSV replic up primary fold: recorded beside HSV replic up, whose call it bears; fold increase; compound at 10 µM; measured here: primary screen fold increase 10 uM; tested in PC3 cells;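 GFP signal in the first replicate; 1 = infected wells without compound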
Starred values were filed as active, the others as inactive; i = inactive; u = inconclusive; x = not tested or not shown; [ ] = another dose, or the depositor's remark. This is a random part of the collection. About 1.3% of those tested had a hit in this group.

Structure,RGS16-Gao HTS,HSV replic up,HSV replic up primary fold,GALR2 agonist,PKD1 inh,Insulin prom inh cell count,Insulin prom inh
CS/C(=C\[N+](=O)[O-])Nc1ccc(F)cc1,103,i,0.85,-2.6,-5,40,7
COc1ccc(NC(=O)C2CCN(C(=O)c3ccc(OC)cc3)CC2)cc1,91,i,1.1,-0.6,7,128,47
O=C(NC(=S)NCC1COc2ccccc2O1)c1ccccc1 (configuration not stated),x,i,0.93,-2.5,-7,x,x
Cc1nc(-n2[nH]c3c(c2=O)CCCC3)[nH]c(=O)c1Cc1ccccc1,100,i,1,8.6,-7,91,4
CCOC(=O)c1[nH]c(C)c(/C(O)=C2\C(=O)C(=O)N(CCN(C)C)C2c2cccc(OC)c2OC)c1C (configuration not stated),107,i,0.87,0.1,0,102,24
CCCCNCCOCCOc1ccc(C)cc1Br,114,i,0.9,-0.1,-3,102,-47
c1cncc(-c2nnc(C3CCCCC3)o2)c1,102,i,0.98,-1.6,-4,x,x
O=C(CCN1c2ccccc2Sc2ccccc21)OCc1nnc(-c2ccccc2)o1,83,i,1.1,-0.7,-7,x,x
Cc1nc(CSc2nnc3scc(-c4ccc(Cl)cc4)n23)cs1,100,i,1,-1.1,-6,79,21
CC1CC(C)CN(C2CCN(Cc3cccnc3)CC2)C1 (configuration not stated),99,i,1.1,-1.8,-2,108,-21
O=C(Cn1c(=O)n(CCCCC(=O)NC2CCCC2)c(=O)c2ccccc21)NCCC1=CCCCC1,61,i,0.98,-1.2,-9,86,-23
CCC(CC)c1nnc(NC(=O)c2c(C)nn(Cc3ccccc3Cl)c2C)s1,100,i,0.9,0.4,0,87,3
Cc1cc(C)cc(CC2CC(=O)N(c3ccc4c(c3)OCCO4)C2=O)c1 (configuration not stated),108,i,0.67,-4.8,-8,55,-49
O=C1/C(=C/c2ccncc2)CCc2ccccc21,99,i,0.97,x,x,x,x
Cc1ccccc1S(=O)(=O)Cc1ccc(C(=O)N2CCN(C3CCCCC3)CC2)o1,78,i,1,-0.8,-6,143,-71
CC1CCCCN1c1cc(C#N)c(C#N)cc1[N+](=O)[O-] (configuration not stated),103,i,0.85,-0.1,1,77,29
O=C1CC(c2ccc(Cl)cc2)SC(N(c2ccccc2)c2ccccc2)=N1 (configuration not stated),115,i,0.99,-0.8,4,73,-58
Cc1ccc(N2C(=O)c3cccc4c(Oc5ccccc5[N+](=O)[O-])ccc(c34)C2=O)c(C)c1,235*[activator],u,x,-1.4,-7,68,0
O=[N+]([O-])c1ccccc1N/N=C/c1ccc2c(c1)OCO2,99,i,1,x,9,x,x
Cc1cc(C)nc(NC(=O)c2cc([N+](=O)[O-])cc([N+](=O)[O-])c2)n1,96,i,1.1,-0.6,-9,x,x
N/C(=N\N=C\c1ccc([N+](=O)[O-])cc1)c1nonc1N,101,i,0.94,x,x,x,x
O=C(Nc1cccc(Cl)c1)OCc1cnc(Cl)s1,100,i,0.9,-1.1,-2,31,-7
Cc1cc(C)c2c(=O)n(CC(=O)NCCCN3CCOCC3)sc2n1,102,i,0.8,-1.5,-9,x,x
COc1ccc(NC(=O)Nc2nnc(N3CCCCC3C)s2)cc1OC (configuration not stated),106,x,x,-0.3,-9,115,15
CC1(C)Cc2c(c(N3CCOCC3)nc3sc4c(=O)[nH]cnc4c23)CS1,100,i,1.1,-3.7,3,46,21
CCN(CC)CC(=O)Nc1ccccc1SCC(=O)Nc1ccsc1C(=O)OC,97,i,1.1,x,7,126,-7
CCn1cc(C(=O)NCCN(C)CCc2ccccc2)c(=O)c2cc(S(=O)(=O)N(C)C)ccc21,103,i,0.86,0.1,-4,50,-11
CC(/C=N/NC(=O)c1ccncc1)=C\c1ccco1,99,i,0.97,x,-1,x,x
CCC(=O)Nc1ccc(NC(=O)C23CC4CC(CC(C4)C2)C3)cn1,107,i,0.9,-0.5,-1,120,24
O=C(COC(=O)COc1ccccc1)Nc1ccc(S(=O)(=O)N2CCOCC2)cc1,100,i,0.93,x,-4,x,x

Just HSV replic up primary fold, for 7 of the compounds above:
compound,HSV replic up primary fold
Cc1nc(CSc2nnc3scc(-c4ccc(Cl)cc4)n23)cs1,1
CC1CC(C)CN(C2CCN(Cc3cccnc3)CC2)C1 (configuration not stated),1.1
O=C(Cn1c(=O)n(CCCCC(=O)NC2CCCC2)c(=O)c2ccccc21)NCCC1=CCCCC1,0.98
CCC(CC)c1nnc(NC(=O)c2c(C)nn(Cc3ccccc3Cl)c2C)s1,0.9
Cc1cc(C)cc(CC2CC(=O)N(c3ccc4c(c3)OCCO4)C2=O)c1 (configuration not stated),0.67
O=C1/C(=C/c2ccncc2)CCc2ccccc21,0.97
Cc1ccccc1S(=O)(=O)Cc1ccc(C(=O)N2CCN(C3CCCCC3)CC2)o1,1

The listing continues.
Structure,RGS16-Gao HTS,HSV replic up,HSV replic up primary fold,GALR2 agonist,PKD1 inh,Insulin prom inh cell count,Insulin prom inh
O=S(=O)(c1ccccc1)c1nc(-c2ccccc2)oc1NCc1cccnc1,93,i,0.8,-0.3,-1,x,x
Cc1ccc(NC(=O)c2nnn(-c3cccc(C(F)(F)F)c3)c2N)cc1,101,i,0.95,x,4,113,29
FC(F)(F)c1nc2ccccc2n2c(-c3ccc(Cl)cc3)nnc12,100,i,0.62,-3.0,6,132,-14
CC(C)(Oc1ccc(Cl)cc1)C(=O)NCc1ccco1,91,i,1,-1.0,1,100,-8
Clc1ccccc1-c1nnc2sc(-c3ccco3)nn12,104,i,0.58,-1.8,17,x,x
CCN(CC)CC(O)Cn1c2ccccc2c2ccccc21 (configuration not stated),109,i,0.83,0.7,10,52,-79
O=c1o[nH]c(-c2ccccc2)c1C1=NCCCCC1,103,i,1,-0.6,1,x,x
COCc1cc(C)nc2sc3c(=O)n(Cc4ccco4)nnc3c12,96,i,0.84,-4.0,-2,x,x
Cn1cc(P(=S)(N2CCOCC2)N2CCOCC2)cc1P(=O)(N1CCOCC1)N1CCOCC1,103,i,1,x,3,x,x
COc1ccc(NC(=O)/C(C#N)=C\C=C\c2ccco2)cc1,116,i,1.1,0.6,4,x,x
CC1CCCC(NC(=O)CCNS(=O)(=O)c2ccc(Br)cc2)C1C (configuration not stated),104,i,1,x,-4,103,-114
COc1cccc(C(c2nnnn2Cc2ccccc2)N2CCN(C3CCCC3)CC2)c1OC (configuration not stated),78,i,0.94,-0.7,-12,92,18
Cc1cc(C)c(NC(=S)N(C)C)cc1C,85,i,0.97,x,x,x,x
CCN(CC)S(=O)(=O)c1cccc(-c2cn3cc(C)ccc3n2)c1,103,i,0.89,0.6,-11,51,3
CCn1c(SC(C)C(=O)O)nc2sc3c(c2c1=O)CCC3 (configuration not stated),90,i,1.1,-1.4,6,100,-3
CCc1cc2cc(C)ccc2nc1SCC(=O)Nc1cc(C)on1,108,i,0.7,-0.6,-3,71,-225
CC(=O)N1c2ccccc2NC2=C(C(=O)CCC2)C1c1ccco1 (configuration not stated),91,i,1.2,x,6,58,10
Cc1ccc(-n2nnnc2SCC(=O)Nc2nc(-c3ccc(F)cc3)cs2)cc1C,98,i,0.78,-5.9,-2,125,29
O=C(Nc1ccc(N2CCOCC2)cc1)C1CCCCC1,100,i,0.88,-1.5,-1,114,-23
O=C(C1CCN(S(=O)(=O)N2CCC3(CC2)OCCO3)CC1)N1CCC(Cc2ccccc2)CC1,526*[activator],i,1,-0.7,-6,115,-41
N/C(=N\O)c1ccncc1,97,i,0.89,x,x,x,x
CCOc1cc(/C=C/c2ccc3cccc([N+](=O)[O-])c3n2)ccc1O,93,i,0.82,0.5,-10,86,43
CCC(=O)OC1(C)C(=O)C=C2C=C(c3ccsc3)OC=C2C1=O (configuration not stated),103,i,0.79,x,x,x,x
COc1ccc(NC(=O)c2cccc(N3C(=O)NC4CC3(C)Oc3ccccc34)c2)cc1 (configuration not stated),106,i,0.87,-2.3,-6,85,-29
COC(=O)C/C=C/[C@@H](C)[C@@H](/C=N/O[C@H](C)c1cn([C@@H]2COC[C@H]2O)nn1)NS(=O)(=O)c1ccc(C)cc1,100,x,x,-0.6,5,120,-35
CN(C(=O)COC(=O)CNC(=O)c1ccc(Cl)cc1Cl)c1ccccc1,99,i,0.96,x,-4,120,0
Cn1c(-c2sccc2OCc2ccccc2)n[nH]c1=S,134,i,0.89,-0.6,-12,x,x
Cn1c(=O)n(C)c2cc(NC(=O)CCl)ccc21,101,i,0.72,-2.0,0,84,-26
O=C(OC1CCCCC1=O)c1ccc(S(=O)(=O)Nc2ccccc2)cc1 (configuration not stated),105,i,0.89,x,9,120,9
CC(C)N1CCC(=NNc2ccc(S(=O)(=O)N3CCOCC3)cc2[N+](=O)[O-])CC1,114,i,1,-1.5,-6,112,3
Cc1[nH][nH]c(=O)c1C(c1ccc2c(c1)OCO2)c1c(C)[nH][nH]c1=O,106,i,0.92,x,-6,x,x
CCOC(=O)c1ccc(-c2ccc(/C=N/NC(=O)CN(c3cccc(C)c3)S(C)(=O)=O)o2)cc1,93,i,1,-1.2,-8,x,x
CCN(CC)S(=O)(=O)c1ccc(C(=O)NCCc2ccccn2)cc1,120,i,0.96,x,9,65,47
CCN(CC)C(=O)CSc1nc2ccsc2c(=O)n1CCCC(=O)NCCc1ccc(S(N)(=O)=O)cc1,86,i,1.1,x,-11,x,x
COc1cccc(Cn2c(NCc3ccccn3)nc3c2c(=O)n(C)c(=O)n3C)c1,x,x,x,-0.4,-9,131,28
O=C(Cn1c(=O)oc2cc(S(=O)(=O)N3CCCC3)ccc21)N1CCCC1,108,i,1.1,-1.7,-13,x,x
CC(C)(C)OC(=O)NNC1CC(=O)N(c2ccccc2F)C1=O (configuration not stated),141,i,1,-0.8,-1,82,-21
COCCNC(=O)Cn1c(=O)n(C)c2ccccc21,108,i,0.92,-1.8,-6,55,-8
CCCCCCCCOC(=O)c1nc(Cl)c(Cl)c(N)c1Cl,100,i,0.98,-0.5,-8,193,62
O=C(NC(Cc1ccccc1)c1ccc2c(c1)OCCCO2)c1ccc(F)cc1 (configuration not stated),99,i,1.2,-2.7,6,87,0

Arranged by SMILES length (rising): part of the list above
Structure,RGS16-Gao HTS,HSV replic up,HSV replic up primary fold,GALR2 agonist,PKD1 inh,Insulin prom inh cell count,Insulin prom inh
CCCCCCCCOC(=O)c1nc(Cl)c(Cl)c(N)c1Cl,100,i,0.98,-0.5,-8,193,62
O=C(Cn1c(=O)oc2cc(S(=O)(=O)N3CCCC3)ccc21)N1CCCC1,108,i,1.1,-1.7,-13,x,x
CCOC(=O)c1ccc(-c2ccc(/C=N/NC(=O)CN(c3cccc(C)c3)S(C)(=O)=O)o2)cc1,93,i,1,-1.2,-8,x,x
